Assay outcomes from PubChem.
VDR inhibitor – vitamin D3 receptor (human) inhibition; P11473; VDR-SRC2-3 peptide fluorescence polarization, 2 h; Potency, µM, for the others: max response, negative = inhibition, hits mostly inhibitors; hit rate 0.93% among 400,000; active = well fitted inhibition curve with a large enough effect; inconclusive = small, poorly fitted or top-dose-only effect, or another doubt; inactive = no such curve, though single readings can be large or run the other way; also: series mostly up to about 120 µM
Target sequence (P11473 whole entry, looked up): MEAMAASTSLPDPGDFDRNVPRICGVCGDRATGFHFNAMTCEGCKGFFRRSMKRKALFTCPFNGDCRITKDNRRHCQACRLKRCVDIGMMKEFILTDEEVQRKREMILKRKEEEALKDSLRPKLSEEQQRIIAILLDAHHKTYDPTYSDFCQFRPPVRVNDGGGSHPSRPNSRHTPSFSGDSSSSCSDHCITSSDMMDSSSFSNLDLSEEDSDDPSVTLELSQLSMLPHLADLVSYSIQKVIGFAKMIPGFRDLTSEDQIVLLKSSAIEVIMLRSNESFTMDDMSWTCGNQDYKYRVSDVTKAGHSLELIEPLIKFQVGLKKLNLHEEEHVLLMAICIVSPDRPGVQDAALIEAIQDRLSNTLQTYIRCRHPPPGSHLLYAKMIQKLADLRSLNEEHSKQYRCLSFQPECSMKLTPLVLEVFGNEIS
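The screen uses fluorescence polarization to detect compounds that interfere with recruitment of the SRC2-3 coactivator peptide to VDR; plates are read after 2 h at room temperature.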
* hit, by the source's call; ? = inconclusive; & = joins results of further samples. % is scaled to controls: 0 for no effect and ±100 for the full control effect; potency is read from the fitted curve at half-maximal effect. Only part of the results is shown; count on the stated rates, not on these rows.

canonical_smiles	VDR inhibitor
CC1CC1c1ccc(/C=C(\C#N)C(=O)Nc2ccc(Cl)cc2Cl)o1 (configuration not stated)	-2%
Cc1cc(=O)n2nc(N3CCCC3C(=O)NCCCN3CC(C)CC(C)C3)sc2n1 (configuration not stated)	-10%
COc1ccc(CCNC(=O)c2cc(-c3ccc(C)c(C)c3)nc3ccccc23)cc1OC	7%
CCCCN(C(=S)NC(=O)c1ccccc1)c1c(N)n(Cc2ccccc2)c(=O)[nH]c1=O	-23%
Cc1ccc2c(c1)c1c3n2CCN(CC#N)C3CCC1 (configuration not stated)	8%
O=C(O)CCn1c(C2CCCCC2)nc2ccccc21	15%
CCn1c(SCC(=O)Nc2ccc(OC)c(OC)c2)nnc1-c1cnccn1	-4%
COc1cc(/C=C/C(=O)Nc2nnc(C(C)(C)C)s2)cc(OC)c1OC	-19%
CC(C)OCCCNC(=O)C1CC(=O)N(CCc2ccc(F)cc2)C1 (configuration not stated)	-6%
COc1ccc(-c2csc(NC(=O)CCn3cnc4ccccc4c3=O)n2)cc1OC	-14%
O=C(COC(=O)c1ccc(S(=O)(=O)NCc2ccco2)cc1)NCCC1=CCCCC1	4%
O=C(Nc1ccccc1)C1CCOC1=O (configuration not stated)	-7%

(more compounds)
canonical_smiles	VDR inhibitor
COc1cc(S(=O)(=O)N2CCN3CCCC3C2)ccc1-n1cnnn1 (configuration not stated)	4%
CO[C@H]1[C@@H]2C=CO[C@@H](O[C@H]3O[C@@H](CO)[C@H](O)[C@@H](O)[C@@H]3O)[C@@H]2[C@@]2(CO)O[C@@H]12	-9%
O=C(N[C@@H](Cc1ccccc1)C(=O)N1CCC2(CC1)NCCc1[nH]cnc12)c1cccc(Br)c1	11%
O=C(C[n+]1cc(-c2ccc(Br)cc2)n2c1CCCCC2)c1ccccc1	7%
COc1ccccc1C1C(C(=O)N2CCCCC2)=C(C)Nc2nc3ccccc3n21 (configuration not stated)	-11%
Cn1ncc2c(Nc3ccc(Cl)cc3)ncnc21	-8%
COC(=O)c1ccc(NC(=O)CSc2nnc(-c3ccccc3Br)n2-c2ccccc2)cc1	14%
CCOC(=O)c1[nH]c2c(c1C)C(=O)CC(c1ccc(OC)c(OC)c1)C2 (configuration not stated)	0%
CCN(CC(=O)Nc1ccc(OC)cc1)C(=O)C1CCN(C(=O)c2ccc(Cl)cc2)CC1	-1%
Cc1cc(Br)ccc1NC(=O)c1coc(=O)c2ccccc12	-8%
CCCCn1c(=O)c2c(O)cc(=O)oc2c2ccccc21	-16%
O=C(Cc1ccc(S(=O)(=O)N2CCOCC2)s1)N1CCN(S(=O)(=O)c2ccccc2[N+](=O)[O-])CC1	-12%

New compounds follow
canonical_smiles	VDR inhibitor
Cc1ccccc1CS(=O)(=O)c1nnc([C@H](Cc2ccccc2)NC(=O)OC(C)(C)C)o1	20µM*
CCCCC(CC)CNS(=O)(=O)c1ccc2c(c1)CCN2C(=O)CCC(=O)O (configuration not stated)	-1%
CCCCn1c(=O)c(-c2ccccc2)c(O)c2ccccc21	-1%
Cc1ccc(OCCC(=O)OCC(=O)c2c(N)n(C)c(=O)n(C)c2=O)cc1	-6%
COc1cccc(NC(=O)CN(C)CC(=O)Nc2ccc3c(c2)CCC3)c1	-6%
COc1cccc(-n2ccnc2SCC(=O)Nc2c(C)cc(C)cc2C)c1	-6%
CN(C(=O)c1ccc(S(=O)(=O)c2cccc(Cl)c2)c([N+](=O)[O-])c1)C1CCCCC1	-12%
COC(=O)[C@@]1(Cc2ccc(F)cc2)[C@H]2c3cc(C(=O)N(C)C)n(CCc4ccc(OC)c(Br)c4)c3C[C@H]2CN1C(=O)c1ccccc1	-25%
CNc1ccc(C(=O)OCC(=O)NCc2ccc3c(c2)OCO3)cc1[N+](=O)[O-]	-11%
Fc1ccccc1N1CCN(C(c2cccs2)c2nnnn2CCc2ccccc2)CC1 (configuration not stated)	2%
Cc1cc(Nc2ccc(Br)c(C)c2)n2nc(-c3ccco3)nc2n1	-3%
CS(=O)(=O)N(CC(=O)NCCC1=CCCCC1)c1cccc([N+](=O)[O-])c1	-11%

New compounds follow
canonical_smiles	VDR inhibitor
CC(C)(C)OC(=O)N1CCC(c2cc(=O)n3[nH]cc(C(=O)Nc4ccc(F)c(Cl)c4)c3n2)CC1	-6%
Cc1cccc(C2=Nc3ccccc3N=C(c3cc(Cl)ccc3O)C2)c1	0%
CNC(=S)N(CCc1c(C)[nH]c2ccc(OC)cc12)Cc1ccco1	-6%
CCOCCCNC(=O)c1cc(=O)n(Cc2cccc(C)c2)c2ccccc12	-18%
CC(C)CCC(C)NC(=O)c1ccc2nccnc2c1 (configuration not stated)	-7%
CCOC(=O)C1CCCN(C(=O)C2CCN(S(=O)(=O)c3ccc(Cl)c(C(F)(F)F)c3)CC2)C1 (configuration not stated)	-17%
CC(C)c1ccc(S(=O)(=O)Nc2cc3c(cc2NCc2ccccc2)n(C)c(=O)n3C)cc1	-1%
CCc1ccc(NC(=O)Cn2cnc3sc(C)c(S(=O)(=O)N4CCC(C)CC4)c3c2=O)cc1	1%
CCNC(=O)C(=O)NCC(c1ccc2c(c1)OCO2)N1CCOCC1 (configuration not stated)	-3%
COc1cc(/C=N/Nc2ccccn2)ccc1OCC(C)C	3%
O=C(CSc1nc2ccccc2[nH]1)N1CCN(c2ccc(F)cc2)CC1	16%
Cc1cccc(NC(=O)c2ccc(C3SCC(=O)N3CCc3ccccc3)cc2)c1 (configuration not stated)	-12%

The list goes on.
canonical_smiles	VDR inhibitor
Cc1cc(COc2ccccc2OCCN2CCN(C)CC2)no1	-28%
COc1cccc(N2C(=O)N(c3ccccc3)C3CS(=O)(=O)CC32)c1 (configuration not stated)	6%
CC1C(=O)N2CCCc3cc(S(=O)(=O)Nc4ccccc4C(N)=O)cc1c32 (configuration not stated)	-6%
COc1ccc(C(=O)NCCS(=O)(=O)NCC2CCCO2)cc1 (configuration not stated)	-10%
C[C@]12C(=O)N(c3ccc(C(F)(F)F)cc3)C(=O)N1[C@@H]1c3ccccc3OC[C@@H]1[C@H]2c1ccccc1	-3%
CCOc1ccc(/C=N/NC(=O)CC(=O)NCc2ccccc2)cc1	3%
COC(=O)c1cc(OC)c(OC)cc1NC(=O)c1cc(-c2ccccc2)nc2ccccc12	-7%
NS(=O)(=O)c1ccc(NC(=O)C2Cc3ccccc3CN2C(=O)c2ccco2)cc1 (configuration not stated)	-10%
Cc1cnc(C(=O)OCC(=O)Nc2ccc(Oc3ccccc3)cc2)cn1	11%
CN(C)S(=O)(=O)N1CCN(c2ccc(Cl)cc2)CC1	0%
O=C(NCCCN1CCOCC1)c1cc2c(s1)-c1ccccc1OC2	-11%
Cc1cc(NC(=O)CN2C(=O)c3ccccc3S2(=O)=O)no1	-12%

New compounds follow:
canonical_smiles	VDR inhibitor
COCC(=O)N(Cc1ccccc1)c1ccccn1	-8%
COc1ccc(C(=O)NCCS(=O)(=O)N2CCc3ccccc3C2)c(OC)c1	7%
O=C(COC(=O)CN1C(=O)c2ccccc2C1=O)NC1CCCCC1	-2%
CCOC(=O)c1sc(NC(=O)CCC(=O)O)nc1C	20%
O=c1ncn(-c2ccccc2F)c2ncccc12	5%
COc1cc(C(=O)OCC(=O)Nc2ccc3c(c2)OC(F)(F)O3)ccc1OCc1c(C)noc1C	9%
O=C(CSc1nncc2ccccc12)Nc1ccc(C(=O)O)cc1	?
CCCn1nc(C(=O)OCc2nc(N)nc(Nc3ccccc3C)n2)c2ccccc2c1=O	-1%
CC(C)Cn1c(=O)c2c(nc3n2CC(C)CN3Cc2ccccc2)n(C)c1=O (configuration not stated)	6%
CC(C)(C)OC(=O)N1CCC(c2c(C(=O)NCCN3CCc4ccccc4C3)cnn2-c2ccc(F)cc2F)CC1	12%
Cc1ccc(OCCN2CCN(C(=O)CCC(=O)Nc3nnc(CC(C)C)s3)CC2)cc1	-8%
O=C(NCc1ccc2c(c1)OCO2)C1CCCN1C(=O)Nc1cccc(F)c1 (configuration not stated)	-9%

Going on with the list:
canonical_smiles	VDR inhibitor
Cc1cccc(NC(=O)CSc2nc3ccc(NC(=O)COc4ccc(Cl)cc4)cc3s2)c1	-7%
Cc1cc(NC(=O)COC(=O)CNC(=O)c2cccs2)c([N+](=O)[O-])cc1C	-10%
Cc1ccc(CNC(=O)Cn2ccn(-c3cc(C)cc(C)c3)c(=O)c2=O)cc1	3%
CCOc1cccc(NC(=O)Cn2nc(-c3ccc4c(c3)OCCO4)ccc2=O)c1	-5%
CC(C)NC(=O)Cn1cc(C#N)c2cc(Br)ccc21	-5%
ON(Cc1c(F)cccc1Cl)Cc1c(F)cccc1Cl	-22%
CCCc1cc(Nc2ccccc2)n2ncnc2n1	-2%
Cc1ccn2c(NC3CCCC3)c(-c3ccsc3)nc2c1	9%
COc1ccc(/C=C(/C#N)C(=O)Nc2cccc(C)c2C)cc1C(=O)O	0%
Cc1nnc(NCCN2CCOCC2)[nH]c1=O	-15%
c1cncc(CNc2ncn[nH]2)c1	-7%
CCCNC(=O)Cn1c(=O)oc2cc(S(=O)(=O)N3CC(C)CC(C)C3)ccc21 (configuration not stated)	-1%

Next section; the last 2 above are carried over.
canonical_smiles	VDR inhibitor
c1cncc(CNc2ncn[nH]2)c1	-7%
CCCNC(=O)Cn1c(=O)oc2cc(S(=O)(=O)N3CC(C)CC(C)C3)ccc21 (configuration not stated)	-1%
COc1ccc(-c2[nH]ncc2/C=N\NC(=O)c2ccc(C(C)(C)C)cc2)cc1OC	-6%
Cn1ncc(Cl)c1C(=O)NC1C2CC3CC(C2)CC1C3 (configuration not stated)	14%
Cc1cc2n(n1)C(c1ccsc1)Nc1ccccc1-2 (configuration not stated)	5%
CC(=O)c1ccccc1OCCCOc1cccc2cccnc12	-26%
COc1cc(S(=O)(=O)n2ccc(C)n2)ccc1Cl	6%
CCc1cccc(NS(=O)(=O)c2ccc(-n3cccn3)cc2)c1	-19%&0%
Cc1c(NC(=O)c2cnn3cccnc23)c(=O)n(-c2ccccc2)n1C	4%
CCCCCCc1ccc(N2C[C@H](Cc3ccccc3)[C@@H](CC(=O)Nc3ccccc3)C2=O)cc1	-9%
CCN(CC)C(=O)CSc1nc2ncccc2[nH]1	-6%
COc1ccccc1-c1c(C(F)(F)F)oc2cc(OC(=O)c3ccc([N+](=O)[O-])cc3)ccc2c1=O	-17%
Cc1cccc(C(=O)Nc2sc(C(=O)N3CCCC3)c(C)c2C#N)c1	-5%
CCOC(=O)C1CCCN(C(=O)Cc2c(C(=O)O)[nH]c3ccccc23)C1 (configuration not stated)	0%

Carrying on:
canonical_smiles	VDR inhibitor
Cc1nc2ccccc2c(=O)n1NC(=O)COc1ccccc1	6%
O=C(c1ccccc1)N1CCC(c2nc3ccccc3o2)CC1	6%
CN1C(=O)c2ccccc2Sc2ccc(NC(=O)NCc3cccc(Cl)c3)cc21	16%
Cc1ccc(C)c(NC(=O)CN(C)C(=O)c2ccccc2Cc2ccccc2)c1	-17%
CS(=O)(=O)N1CCCC(C(=O)NCc2ccc(F)cc2Cl)C1 (configuration not stated)	0%
Cc1cccc(NC(=O)CSc2nc3c(oc4ccccc43)c(=O)n2-c2ccccc2)c1C	5%
O=C(O)C1C2C=CC(C2)C1C(=O)NC(c1ccccc1)c1ccccc1 (configuration not stated)	4%
Cc1ccc(NC(=O)Nc2ccc3c(c2)N(C)C(=O)CS3)cc1C	-6%
CCCCC(=O)Nc1nc(C)c(-c2csc(Nc3ccccc3OC)n2)s1	11%
Cc1ccc(C2=NN(CC(=O)NC(C)c3ccccc3)C(=O)CC2)cc1 (configuration not stated)	10%
Cc1cc(NC(=O)C(C)(C)Oc2ccc(Cl)cc2)cc(-c2nc3ncccc3o2)c1O	10%
CCC(c1nnc(SCC(=O)Nc2ccc(NC(C)=O)cc2)n1Cc1ccccc1)N(C)C (configuration not stated)	-19%

A draw from above in order of length of the SMILES, rising:
canonical_smiles	VDR inhibitor
Cc1nc2ccccc2c(=O)n1NC(=O)COc1ccccc1	6%
O=C(c1ccccc1)N1CCC(c2nc3ccccc3o2)CC1	6%
Cc1ccc(NC(=O)Nc2ccc3c(c2)N(C)C(=O)CS3)cc1C	-6%
O=C(O)C1C2C=CC(C2)C1C(=O)NC(c1ccccc1)c1ccccc1 (configuration not stated)	4%
Cc1ccc(C)c(NC(=O)CN(C)C(=O)c2ccccc2Cc2ccccc2)c1	-17%
Cc1cc(NC(=O)C(C)(C)Oc2ccc(Cl)cc2)cc(-c2nc3ncccc3o2)c1O	10%

More structures follow:
canonical_smiles	VDR inhibitor
Cc1ccc(S(=O)(=O)N2CCOCC2)cc1C(=O)N1CCN(Cc2ccccc2)CC1	-14%
Cc1ccccc1NC(=S)Nc1ccccc1	-4%
C[C@@H]1CC=C[C@@H]2[C@H]1C(=O)N(Cc1ccccc1)[C@H]2c1cccc(C#Cc2ccccc2)c1	-3%&-11%
CCNC(=O)Cn1c(-c2cccs2)cc2ccccc21	0%
COc1cc(Cl)c(S(=O)(=O)NCCCN2CCOCC2)cc1Cl	8%
CCCCOc1ccc(/C=c2\sc3ncnn3c2=O)cc1	?
Cc1ccc(C(=O)Nc2nnc(NC(=S)Nc3ccccc3)s2)cc1	-25%
C=CCc1c(OC)ccc2c1c(S(=O)(=O)c1ccc(C)cc1)cn2COC	1%
CC(CN1CCCC1)OC(=O)c1ccc(F)cc1 (configuration not stated)	3%
CN(C)c1ccc(C(=O)C(O)c2ccccc2Cl)cc1 (configuration not stated)	5%
O=C1c2cccc([N+](=O)[O-])c2C(=O)N1C1CCCCC1	-28%
